# AID923 = qHTS Assay for Allosteric/Competitive Inhibitors of Caspase-1: Spectroscopic Profiling in AFC Spectral Region. compound fluorescence, AFC spectral region (405/520 nm); almost no hit is shown here. hit rate 1.1% among 75,000. Potency, µM (titrated, usually from 57.5 µM), inactives show top-dose fluorescence increase, hits mostly activators; active = well fitted activation curve with a large enough effect; inconclusive = small, poorly fitted or top-dose-only effect;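 also: potency is read from the fitted curve at half-maximal effect; 0% is about no effect; scaled to a free AFC standard on each plate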
#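 Baseline compound fluorescence (AFC region, 405 nm ex/520 nm em) taken from the intercept of kinetic reads with 50 nM caspase-1 and 5 uM Ac-WEHD-AFC; normalized to an on-plate AFC standard curve; compounds titrated up to 57 uM.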
# A488 autofl = A488 region autofluorescence. compound autofluorescence, A488 spectral region, dye equivalency; hits give high values. max dye equivalency, M. hit rate 0.1% among 59,000; active = above 10 nM dye equivalent; inconclusive = 1 to 10 nM; inactive = 1 nM or less; about half of its hits are not listed in these tables;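 also: highest value over a series up to 38 µM; compound alone in buffer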
#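 Compounds pin-transferred into 100 mM Tris buffer, pH 8.0, incubated 15 min at room temperature, then imaged with 480 nm excitation/540 nm emission filters. Fluorescence converted to Alexa 488 dye-equivalent concentration via an on-plate six-point A488 standard curve.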
# A647 fluor = compound autofluorescence in A647 spectral region; Compound fluorescence, A647 channel (570/671 nm), Tris buffer; max dye-equivalent concentration, M; 59,000 tested, under 10 active; AID 592; active means above 1 µM dye equivalent; inconclusive means 0.1 to 1 µM; inactive means 0.1 µM or less;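 also: values scaled relative to a standard on each plate; highest value over a series up to 38 µM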
#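 Tris 100 mM pH 8.0; cpd + A647 stds pin-transferred; 15 min RT; CCD imager, ex 570/em 671. Output = A647-equivalent conc. per cpd conc.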
# Resorufin fluor = compound fluoresces in the resorufin spectral region; Compound fluorescence, resorufin region 547/598 nm, buffer; hits give high values; max dye-equivalent concentration, M; hit rate 0.04% among 59,000; active = above 10 nM dye equivalent; inconclusive = 1 to 10 nM; inactive = 1 nM or less; a few of its hits are not listed in these tables; also: highest value over a series up to 38 µM
#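 Dye-equivalent concentration values derive from comparing each well's 547/598 nm fluorescence against resorufin standards included on every plate. Incubation was 15 min at room temperature in 100 mM Tris, pH 8.0.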
# TSHR agonist = TSH receptor (human) agonism | hit rate 0.48% among 73,000 | AID 926 | Potency, µM (highest dose often 57.1 µM), inactives show at the top dose activation, usual class: activators | HEK293-CNG-TSHR cells (CNG channel as cAMP sensor), membrane potential dye, cAMP; active = well fitted activation curve of enough size with the parental cells flat; inconclusive = any curve in the parental cells; inactive = parental cells flat and receptor cells flat or falling; also: potency is read from the fitted curve at half-maximal effect; % of control where 0% means no effect; weak receptor curves with flat parental cells got no call and are not listed
# Target sequence (P16473 whole entry, looked up): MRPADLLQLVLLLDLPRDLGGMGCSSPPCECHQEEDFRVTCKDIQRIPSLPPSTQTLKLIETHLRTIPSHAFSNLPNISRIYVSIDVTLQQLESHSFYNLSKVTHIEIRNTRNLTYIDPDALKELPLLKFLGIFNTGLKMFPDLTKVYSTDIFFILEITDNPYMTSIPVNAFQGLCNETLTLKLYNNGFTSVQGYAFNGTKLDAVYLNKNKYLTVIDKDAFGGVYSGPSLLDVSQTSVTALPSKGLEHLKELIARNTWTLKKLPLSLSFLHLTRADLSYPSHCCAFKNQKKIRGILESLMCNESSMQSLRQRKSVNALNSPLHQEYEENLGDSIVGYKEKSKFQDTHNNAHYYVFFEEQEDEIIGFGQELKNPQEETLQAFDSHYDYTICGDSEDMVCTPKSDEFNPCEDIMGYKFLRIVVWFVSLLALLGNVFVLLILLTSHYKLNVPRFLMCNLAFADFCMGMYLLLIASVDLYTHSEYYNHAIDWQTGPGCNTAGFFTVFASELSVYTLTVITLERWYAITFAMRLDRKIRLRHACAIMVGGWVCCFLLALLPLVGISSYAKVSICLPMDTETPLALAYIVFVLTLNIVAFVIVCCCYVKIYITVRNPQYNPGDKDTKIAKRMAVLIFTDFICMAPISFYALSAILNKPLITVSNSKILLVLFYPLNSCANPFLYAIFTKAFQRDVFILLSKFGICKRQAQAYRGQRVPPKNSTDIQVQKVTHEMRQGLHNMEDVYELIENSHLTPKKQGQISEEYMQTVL
#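 HEK 293 cells stably expressing TSHR and a cAMP-gated CNG channel; parental CNG-only cells as counterscreen. Cells preloaded 60 min with membrane potential dye plus 100 uM RO 20-1724, then compound 30 min; fluorescence read at 590 nm.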
# Starred values were filed as active, the others as inactive; i = inactive; ? = inconclusive; . = no result given; & = joins results of further samples; [ ] = remark or other dose. These rows are one share of the data. The share of hits here may be higher or lower than overall.
Molecule,A647 fluor,A488 autofl,AID923,Resorufin fluor,TSHR agonist
CCCS(=O)(=O)c1c(S(=O)(=O)CCC)c2cc(CC)ccn2c1C(=O)OC,3.6e-08,i,0.5%,i,13%
CC(C)COc1cccc(C(=O)Nc2ccc(S(=O)(=O)N3CCOCC3)cc2)c1,1e-09,i,-0.7%,i,?
CCSc1nnc(NC(=O)CSc2nc3c(c(=O)n2C)SC(C)C3)s1 (centres undefined),1e-09,i,-2.5%,i,25%
CN(Cc1cnc2nc(N)nc(N)c2n1)c1ccc(C(=O)N[C@H](CCC(=O)O)C(=O)O)cc1,6.9e-09&4.8e-09&4.5e-08,i,4.4%[25.7 µM],i,?
COc1ccc(OC)c(C2C(C(=O)c3cccs3)=C(O)C(=O)N2CCN(C)C)c1 (centres undefined),1e-09,i,-0.1%,i,1%
Cc1c(C(=O)Nc2nnc(C(F)(F)F)s2)oc2ccccc12,.,.,0.8%,.,3%
Cc1ccc(CNC(=O)C2c3ccccc3C(=O)N(C)C2c2c[nH]c3ccccc23)o1 (centres undefined),3.4e-08,i,-2.2%,i,?
COCC(=O)N1CCC[C@@]2(CCN(Cc3ccc(C#N)cc3)C2)C1,3.2e-08,i,3.7%,i,16%
COC(=O)c1ccc(Oc2nc3c(c(=O)n(C)c(=O)n3C)n2CCC(C)C)cc1,1.3e-08,i,-2.6%,i,?
c1cc2nncn2nc1N1CCCC1,3.1e-08,i,1.0%,i,-6%

# A second format for some results above.
# Second line of a record – A647 fluor | A488 autofl | AID923 | Resorufin fluor | TSHR agonist
CCCS(=O)(=O)c1c(S(=O)(=O)CCC)c2cc(CC)ccn2c1C(=O)OC
 : 3.6e-08 | i | 0.5% | i | 13%
CC(C)COc1cccc(C(=O)Nc2ccc(S(=O)(=O)N3CCOCC3)cc2)c1
 : 1e-09 | i | -0.7% | i | ?
CCSc1nnc(NC(=O)CSc2nc3c(c(=O)n2C)SC(C)C3)s1 (centres undefined)
 : 1e-09 | i | -2.5% | i | 25%
CN(Cc1cnc2nc(N)nc(N)c2n1)c1ccc(C(=O)N[C@H](CCC(=O)O)C(=O)O)cc1
 : 6.9e-09&4.8e-09&4.5e-08 | i | 4.4%[25.7 µM] | i | ?

# Later entries:
Molecule,A647 fluor,A488 autofl,AID923,Resorufin fluor,TSHR agonist
C/C=C/OC(=O)NC(c1cccc(C)c1)[C@@]1(C(=O)OCC)CCCC1=O (some centres undefined),.,.,-1.0%[11.5 µM],.,6%[11.4 µM]
Cc1ccc(SCc2nc(-c3ccccc3)no2)cc1,3.9e-08,i,0.9%,i,.
COCCNC(=O)c1ccc2ccccc2n1,1.9e-09,i,-2.0%,i,7%
O=C(COc1ccccc1)Nc1cccc(-c2nnc(-c3ccccc3)o2)c1,1e-09,i,-0.6%,i,?
CN(Cc1ccccc1)Cn1ccnc1,3.2e-09,i,3.2%[11.5 µM],i,10%[11.4 µM]
CCN1C(=O)[C@H]2[C@@H]3[C@H](O)C=CC(=O)[C@H]3CC[C@H]2C1=O,.,.,-1.4%[11.5 µM],.,-1%[11.4 µM]
CCOC1OC2C(CO)OC(n3cnc4c(N)ncnc43)C2O1 (centres undefined),.,.,1.9%,.,0%[11.4 µM]
CC1CC(C(F)(F)F)n2ncc(C(=O)O)c2N1 (centres undefined),7.6e-09,i,-0.6%,i,3%
CCCOc1ccc([C@@H]2C3CN(C(=O)OCC)CC=C3C(C#N)=C(N)C2(C#N)C#N)cc1OC (some centres undefined),1e-09,i,4.8%,i,.
CC1Cc2ccccc2N1C(=O)c1cnc2ccccn2c1=O (centres undefined),.,.,0.0%,.,6%
COc1ccccc1CNc1nc2nc3c(c(=O)n2[nH]1)CCC3,1e-09,i,0.4%,i,-5%
COCCn1c(C)cc(C(=O)COC(=O)c2cc3c(s2)CCC3)c1C,2.9e-08,i,2.8%,i,?
CC[C@@H](C)[C@H](NS(=O)(=O)c1ccc(C)cc1)C(=O)N1CCC(C(=O)NCC(=O)O)CC1,4e-09,i,1.7%,i,-1%
CN(CC(=O)NCc1ccco1)S(=O)(=O)c1ccc2c(c1)n(C)c(=O)c(=O)n2C,1.9e-08,i,-0.3%,i,15%
COCCCNC(=O)c1ccccc1NS(=O)(=O)c1ccc(C)cc1,4.3e-08,i,1.2%,i,-18%
CCCCCCCC1=CC2=CC(=O)C(C)(O)C(=O)C2=CN1CCCC (centres undefined),.,.,-0.7%[11.5 µM],.,-11%[11.4 µM]
Cc1nc(NCc2ccco2)c(C#N)c2c1COC(C)(C)C2,4.9e-08,i,5.9%,i,?
Cc1cc2cc(CN(Cc3cccs3)Cc3nnnn3CC3CCCO3)c(=O)[nH]c2cc1C (centres undefined),1.2e-08,i,4.6%,i,?
CCOC(=O)N1CCC(NS(=O)(=O)c2ccc3c(c2)C(C)(C)C(=O)N3C)CC1,1.9e-09,i,2.3%,i,2%
CCC(CC)C(=O)Nc1c2cnn(-c3ccccc3)c2nc(=O)n1-c1ccccc1,1e-09,i,0.5%,i,10%
CCCCc1ccc(NC(=O)CSC2=C(C#N)C(c3ccco3)C3=C(CCCC3=O)N2)cc1 (centres undefined),1.1e-08,i,.,i,.
CC(=O)c1cnc(Nc2nc(C)c3cccc(C)c3n2)nc1C,1.3e-08,i,-0.6%,i,-1%
CC1CCCCN1C(=O)Cn1c(=O)oc2ccccc21 (centres undefined),2.7e-08,i,0.3%,i,1%
O=C(Nc1cccc(C(F)(F)F)c1)C1CCCN(S(=O)(=O)c2cnc[nH]2)C1 (centres undefined),2.5e-08,i,-0.8%,i,-2%[11.4 µM]
CCCCC(=O)Nc1ccc(C(N)=O)cc1,4.1e-09,i,0.3%,i,4%
Cc1cccc(NC(=O)c2cc(NC(=O)C3CC=CCC3C(=O)O)ccc2N2CCOCC2)c1 (centres undefined),1.2e-08,i,0.4%,i,-17%
Cc1nc2ncnn2c(N2CCCC(C(=O)Nc3ccc4c(c3)CCC4)C2)c1C (centres undefined),1e-09,i,0.2%,i,7%
O=C(Cn1cnc2c(nnn2Cc2ccccc2F)c1=O)NCC1CCCO1 (centres undefined),1e-09,i,4.7%,i,-1%
O=C(OCc1nnc(-c2ccccc2)o1)c1ccc2ccccc2n1,4.3e-09,i,0.2%,i,?
COCCNC(=O)[C@@]1(C)C=C[C@@H](Cc2ccccc2)N1C(=O)c1ccccc1,.,.,0.6%,.,10%
CCN(Cc1ccccc1)C(=O)CSc1nc(C)cc(C)c1C#N,.,.,1.5%,.,47%
O=C(c1ccco1)N1CCC2(CC1)CN(c1ccccn1)C2,1.4e-08,i,-0.5%,i,0%
CC12/C(=N/O)C3C4CC5C3/C(=N/O)C1C5C42 (centres undefined),1e-09,i,-1.3%,i,-5%
CCCc1nnc(NC(=O)Cn2c(=O)oc3ccccc32)s1,3.3e-09,i,1.3%,i,-1%
Nc1cccc(OCc2nc(N)nc(N)c2-c2ccc(Cl)cc2)c1,1.6e-09,i,1.1%[11.5 µM],i,1%[11.4 µM]
CS(=O)(=O)N1CCC2(CCN(c3ccncc3)CC2)CC1,1.4e-09,i,2.9%,i,?
COc1cc(C)c(C#N)c(OC)n1,1e-09,i,-1.6%,i,6%[11.4 µM]
O=C(O)CN(CC(=O)O)CC(=O)O,.,.,2.9%,.,?
Cc1nc(N)nc2ccccc12,1.4e-08,i,-5.9%[11.5 µM],i,-2%[11.4 µM]
Cc1ccc2c(c1)c1c3n2CCCNC3CCC1 (centres undefined),.,.,1.2%,.,7%
COc1cc2cc(CN(CCN3CCCC3)C(=O)Nc3ccccc3Cl)c(=O)[nH]c2cc1OC,1e-09,i,7.1%,i,2%
COc1ccccc1NC(=O)CSc1nc2ccccc2c(=O)n1CCNC(C)=O,1.3e-08,i,0.2%,i,18%
COc1cccc(N2CCN(Cc3coc4c(Cl)cc(Cl)cc4c3=O)CC2)c1,.,.,8.4%,.,5%
CCCCN(C)C(=O)CCCCn1c(=O)[nH]c2cc(OCC)c(OCC)cc2c1=O,1e-09,i,0.7%,i,-4%
COc1cc(C(=O)Nc2ccc3c(c2)OCO3)ccc1-n1cnnn1,9.7e-09,i,-0.4%,i,5%
Cc1cc(Br)ccc1OCc1nc(-c2cccnc2)no1,1e-09,i,3.6%,i,?
Cc1noc(C)c1CSc1nnc(-c2ccccc2)n1Cc1ccco1,3.2e-09,i,-0.1%,i,?
O=[N+]([O-])c1ccccc1N=Nc1c(O)[nH]c2ccc(S(=O)(=O)O)cc12,4.2e-08,i,-2.6%[11.5 µM],i,-6%[11.4 µM]
COc1ccccc1CC(=N)N1C[C@@H]2C(=O)CCC(c3ccccc3)(c3ccccc3)[C@@H]2C1,.,.,-1.6%,.,?
CC(=O)Nc1ccc(NC(C)=O)s1,.,.,-2.7%,.,-9%

# Carrying on:
Molecule,A647 fluor,A488 autofl,AID923,Resorufin fluor,TSHR agonist
O=C(Oc1cccc2cccnc12)c1cccs1,2.5e-08,i,-0.4%,i,-9%
COc1cccc(-c2nnn(CCC(=O)O)n2)c1,1.3e-08,i,-1.8%,i,-6%
O=C(CSc1nnc(COc2ccc(Cl)cc2)o1)N1CCN(c2ccccc2)CC1,.,.,-0.9%,.,?
Cc1ccc(/C(C#N)=C/c2cccc([N+](=O)[O-])c2)cc1,5.3e-08,i,0.3%[11.5 µM],i,-1%[11.4 µM]
O=C(CSc1ncn(-c2ccccc2)n1)N1CCc2ccccc21,2.4e-08,i,-0.6%,i,?
CC(=O)c1c(C)[nH]c(C(=O)NCCN2CCC(C)CC2)c1C,1e-09,i,-1.0%,i,-3%
CCc1ccc(OCc2ccc(C(=O)NCc3ccccn3)o2)cc1,1.4e-08,i,1.9%,i,?
O=C(CC(C(=O)N1CCc2ccccc21)n1ccnc1)N1CCc2ccccc2C1 (centres undefined),1.8e-08,i,-1.7%,i,.
CC1CCc2c(nc3ncnn3c2N2CCN(c3ccccc3F)CC2)C1 (centres undefined),2.7e-08,i,1.3%,i,?
CCN(CC)CCN1C(=O)C(=O)/C(=C(/O)c2ccc(C)cc2)C1c1cccnc1 (centres undefined),1.6e-08,i,.,i,.
COc1cc(C(Nc2ccccn2)c2ccc3ccc(C)nc3c2O)cc(OC)c1O (centres undefined),1.2e-08,i,13%,i,3%
Fc1ccc(Cn2nnnc2CN2CCN(C3CCCCC3)CC2)cc1,9.2e-09,i,0.4%,i,?
CC1CCCCC1NC(=O)Cn1ncc2ccccc21 (centres undefined),.,.,0.5%,.,?
CCc1nnc(NCC(=O)N2CCc3ccccc32)s1,3.3e-08,i,0.1%,i,1%
Nc1nc(-c2cccc(NS(=O)(=O)c3ccccc3)c2)cs1,2.8e-08,i,-2.5%,i,-1%
CCCCc1nc(NCCN2CCOCC2)c(C#N)c2c1COC(C)(C)C2,?,i,.,i,.
Cc1nc2ccc(NC(=O)N3CCSCC3)cc2s1,4.1e-08,i,2.1%,i,.
CCN1CCN(/C=N/c2nc3c(s2)CCCC3)CC1,2.2e-08,i,-1.4%,i,2%
CCOC(=O)CC(=O)Nc1ccc(C(=O)OCC)cc1,.,.,1.6%,.,?
CC1CCN(C(=O)c2ccc(NC(=O)C3CCCO3)cc2)CC1 (centres undefined),3.5e-08,i,-0.7%,i,-5%[11.4 µM]
COc1ccc(CCN(C)C(=O)CN2C(=O)c3ccccc3S2(=O)=O)cc1OC,1.7e-08,i,-2.0%,i,-8%
CCOC(=O)N1CCC(NC(=O)CS(=O)(=O)Cc2nc(-c3cccc(OC)c3)oc2C)CC1,3.6e-09,i,0.2%,i,12%
CCn1nc(C)c(NC(=O)c2cc(Br)ccc2Cl)c1C,.,.,-1.0%,.,4%

# Bioassay records from PubChem BioAssay.
